Screening data as filed in PubChem BioAssay.
HIV Env fusion: blocks HIV Env-driven cell-cell fusion. HeLa-JRFL Env/CEM21 cell fusion, luciferase. inhibition, % at 12.3 µM. 360,000 tested, 1.1% active;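 active = mean replicate inhibition score of at least 50 and every replicate individually at or above 50; inconclusive = only one of the two criteria met; inactive = mean below 50 and not all replicates reaching 50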;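 also: 0% = plate neutral controls and 100% = maraviroc near 300 nM; one replicate is shown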
Yeast UUG start: alters start codon recognition fidelity in yeast; S. cerevisiae UUG-firefly luciferase reporter, luminescence/redox ratio; activity score, % at 18.7 µM; 350,000 tested, 0.13% active;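 active = replicate mean at a twofold rise or more, about +100% in these data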;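 also: firefly luciferase made from a UUG start codon reports start codon fidelity; reporter light over untreated wells divided by growth signal over untreated wells; some hits fall short of that in this replicate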
The depositor's hits bear a star; u = inconclusive; [ ] = remark or other dose. This is a subset; rates above refer to the full screens.

SMILES	HIV Env fusion	Yeast UUG start
CC(C)NC(=O)Nc1ccc2c(c1)CC(=O)N([C@@H](C)CO)C[C@@H](C)[C@H](CN(C)Cc1ccc(-c3ccccc3)cc1)O2	5[16.7 µM]	8
C/C=C/c1ccc([C@@H]2[C@H](C#N)N(c3ncc(CC)s3)[C@H]2CO)cc1	9[16.7 µM]	2
C[C@H]1CN([C@@H](C)CO)C(=O)c2cccc(NC(=O)c3ccncc3)c2O[C@@H]1CN(C)S(=O)(=O)c1ccccc1	4[16.7 µM]	6
C[C@@H]1CN([C@H](C)CO)C(=O)c2cc(NC(=O)Nc3cccc4ccccc34)ccc2O[C@@H](C)CCCCO[C@@H]1CN(C)Cc1ccc2c(c1)OCO2	25[16.7 µM]	33
C[C@@H]1CN([C@@H](C)CO)C(=O)c2cc(NC(=O)c3ccccc3)ccc2O[C@@H](C)CCCCO[C@H]1CN(C)C(=O)Nc1ccc2c(c1)OCO2	-9[16.7 µM]	32
C[C@@H]1CCCCO[C@H](CN(C)CC2CCCCC2)[C@@H](C)CN([C@H](C)CO)C(=O)c2cc(NS(=O)(=O)c3ccccc3)ccc2O1	-92[16.7 µM]	5
O=C(C[C@@H]1C[C@H]2c3cc(NC(=O)NC4CCCCC4)ccc3O[C@H]2[C@@H](CO)O1)NCc1ccncc1	61*[16.7 µM]	-26
O=C(C[C@H]1C=C[C@H](NC(=O)c2ccccc2)[C@@H](CO)O1)Nc1ccc(-c2ccccc2)cc1	14[16.7 µM]	-5
O=C(C[C@H]1C=C[C@@H](NC(=O)Cc2ccccn2)[C@H](CO)O1)NCCc1ccncc1	-1[16.7 µM]	-5
CN(C)CC(=O)N[C@@H]1CC[C@H](CCNS(=O)(=O)c2ccccc2)O[C@H]1CO	-8[16.7 µM]	0

Reprinted from the part before: seven compounds, then new ones.
SMILES	HIV Env fusion	Yeast UUG start
C[C@@H]1CN([C@H](C)CO)C(=O)c2cc(NC(=O)Nc3cccc4ccccc34)ccc2O[C@@H](C)CCCCO[C@@H]1CN(C)Cc1ccc2c(c1)OCO2	25[16.7 µM]	33
C[C@@H]1CN([C@@H](C)CO)C(=O)c2cc(NC(=O)c3ccccc3)ccc2O[C@@H](C)CCCCO[C@H]1CN(C)C(=O)Nc1ccc2c(c1)OCO2	-9[16.7 µM]	32
C[C@@H]1CCCCO[C@H](CN(C)CC2CCCCC2)[C@@H](C)CN([C@H](C)CO)C(=O)c2cc(NS(=O)(=O)c3ccccc3)ccc2O1	-92[16.7 µM]	5
O=C(C[C@@H]1C[C@H]2c3cc(NC(=O)NC4CCCCC4)ccc3O[C@H]2[C@@H](CO)O1)NCc1ccncc1	61*[16.7 µM]	-26
O=C(C[C@H]1C=C[C@H](NC(=O)c2ccccc2)[C@@H](CO)O1)Nc1ccc(-c2ccccc2)cc1	14[16.7 µM]	-5
O=C(C[C@H]1C=C[C@@H](NC(=O)Cc2ccccn2)[C@H](CO)O1)NCCc1ccncc1	-1[16.7 µM]	-5
CN(C)CC(=O)N[C@@H]1CC[C@H](CCNS(=O)(=O)c2ccccc2)O[C@H]1CO	-8[16.7 µM]	0
C[C@@H]1CN([C@H](C)CO)C(=O)c2cc(NC(=O)Nc3ccc(C(F)(F)F)cc3)ccc2O[C@@H](C)CCCCO[C@@H]1CN(C)C(=O)NC1CCCCC1	-42[16.7 µM]	-24
O=C(Cc1ccccn1)N[C@H]1CC[C@H](CC(=O)N2CCCCC2)O[C@H]1CO	-9[16.7 µM]	-8
CC(=O)Nc1ccc2c(c1)C(=O)N(C)[C@H]1CC[C@@H](CC(=O)NCc3ccccc3Cl)O[C@@H]1CO2	8[16.7 µM]	10
C[C@@H]1CCCCO[C@H](CN(C)S(=O)(=O)c2cccs2)[C@H](C)CN([C@H](C)CO)C(=O)c2cc(NS(=O)(=O)c3ccc(F)cc3)ccc2O1	0[16.7 µM]	-4
C[C@H]1CN([C@@H](C)CO)C(=O)c2cc(NC(=O)Nc3ccc(C(F)(F)F)cc3)ccc2O[C@@H]1CN(C)S(=O)(=O)c1cccs1	6[16.7 µM]	3
C[C@@H]1CCCCO[C@H](CN(C)S(C)(=O)=O)[C@@H](C)CN([C@H](C)CO)C(=O)c2cc(NC(=O)NC3CCCCC3)ccc2O1	-15[16.7 µM]	25
Cc1noc(C)c1NC(=O)Nc1ccc2c(c1)CC(=O)N([C@@H](C)CO)C[C@H](C)[C@H](CN(C)S(=O)(=O)c1ccc(F)cc1)O2	12[16.7 µM]	-7
C[C@@H]1CN([C@H](C)CO)C(=O)c2cc(NS(=O)(=O)c3ccc(F)cc3)ccc2O[C@@H]1CN(C)C(=O)Nc1cccc2ccccc12	2[16.7 µM]	4
COc1ccc(S(=O)(=O)N(C)C[C@@H]2Oc3ccc(NC(=O)Cn4cnnn4)cc3CC(=O)N([C@H](C)CO)C[C@@H]2C)cc1	90*[16.7 µM]	10
COc1ccc(S(=O)(=O)N(C)C[C@@H]2OCCCC[C@@H](C)Oc3ccc(NC(=O)C4CCCCC4)cc3C(=O)N([C@@H](C)CO)C[C@H]2C)cc1	-5[16.7 µM]	9
C[C@H]1CN([C@@H](C)CO)C(=O)c2cccc(NS(=O)(=O)c3cccs3)c2O[C@H]1CN(C)C(=O)Nc1ccccc1	-50[16.7 µM]	-5
Cc1noc(C)c1NC(=O)N(C)C[C@H]1Oc2ccc(NC(=O)CCCCCC(=O)Nc3ccccc3N)cc2CC(=O)N([C@H](C)CO)C[C@H]1C	-15[16.7 µM]	3
Cc1noc(C)c1NC(=O)NCC[C@@H]1CC[C@@H](NC(=O)Cc2cccnc2)[C@H](CO)O1	22[16.7 µM]	1
O=C(N[C@H]1CC[C@H](CCn2cc(-c3ccccn3)nn2)O[C@H]1CO)c1ccccc1	-3[16.7 µM]	-8
Cc1ccc(S(=O)(=O)Nc2cccc3c2O[C@H](CN(C)Cc2ccccc2)[C@@H](C)CN([C@@H](C)CO)C3=O)cc1	-2[16.7 µM]	5
COc1ccc(NC(=O)N(C)C[C@H]2Oc3c(NC(=O)Nc4ccc(F)cc4)cccc3C(=O)N([C@@H](C)CO)C[C@H]2C)cc1	-7[16.7 µM]	6
O=C(C[C@H]1C=C[C@H](NS(=O)(=O)c2ccc(F)cc2)[C@H](CO)O1)NC1CCC1	0[16.7 µM]	10
CC(C)C#Cc1cnc2c(c1)C(=O)N([C@@H](C)CO)C[C@@H](C)[C@@H](CN(C)C(=O)c1ccccc1F)O2	-53[16.7 µM]	25
Cc1noc(C)c1NC(=O)Nc1cccc2c1O[C@@H](CN(C)Cc1ccccc1)[C@H](C)CN([C@H](C)CO)C2=O	-2[16.7 µM]	14
CC(C)C#Cc1cnc2c(c1)C(=O)N([C@H](C)CO)C[C@H](C)[C@@H](CN(C)C(=O)Nc1ccccc1)O2	-12[16.7 µM]	6
CO[C@H]1CN(C)C(=O)c2cc(NC(=O)Nc3c(C)noc3C)ccc2OC[C@@H](C)NC[C@H]1C	6[16.7 µM]	-7
C[C@@H]1CCCCO[C@H](CN(C)C(=O)Nc2ccc(F)cc2)[C@H](C)CN([C@H](C)CO)C(=O)c2cc(N(C)C)ccc2O1	34[16.7 µM]	8
O=C(C[C@H]1C[C@H]2c3cc(NC(=O)NC4CCCC4)ccc3O[C@H]2[C@H](CO)O1)NCc1ccc2c(c1)OCO2	-9[16.7 µM]	-1
C[C@H]1CCCCO[C@H](CN(C)S(=O)(=O)c2ccc(F)cc2)[C@@H](C)CN([C@@H](C)CO)C(=O)c2cc(NC(=O)Nc3cccc4ccccc34)ccc2O1	-3[16.7 µM]	-14
COc1ccc(S(=O)(=O)Nc2ccc3c(c2)CC(=O)N([C@H](C)CO)C[C@@H](C)[C@H](CN(C)Cc2ccc4c(c2)OCO4)O3)cc1	-7[16.7 µM]	0
O=C(CC1CC1)Nc1ccc2c(c1)[C@H]1C[C@@H](CC(=O)NC3CCCC3)O[C@H](CO)[C@H]1O2	1[16.7 µM]	-10
Cc1ccccc1-c1cnc2c(c1)C(=O)N([C@@H](C)CO)C[C@@H](C)[C@@H](CN(C)CC1CCOCC1)O2	1[16.7 µM]	-11
CC(=O)N(C)C[C@H]1Oc2cc(C#C[C@H](C)O)ccc2S(=O)(=O)N([C@@H](C)CO)C[C@H]1C	-12[16.7 µM]	-7
CC(C)C#Cc1cnc2c(c1)C(=O)N([C@H](C)CO)C[C@H](C)[C@@H](CN(C)C(=O)c1ccccn1)O2	-14[16.7 µM]	9
Cc1noc(C)c1NC(=O)N(C)C[C@@H]1OCCCC[C@@H](C)Oc2ccc(NS(=O)(=O)c3cccs3)cc2C(=O)N([C@@H](C)CO)C[C@H]1C	-5[16.7 µM]	-7
C[C@H](CO)N1C[C@H](C)[C@@H](CN(C)CC2CCCCC2)OCCCC[C@H](C)Oc2ccc(NS(=O)(=O)c3cn(C)cn3)cc2C1=O	14[16.7 µM]	136*
C[C@H](CO)N1C[C@H](C)[C@H](CN(C)Cc2ccncc2)Oc2cc(-c3cncnc3)ccc2S1(=O)=O	-2[16.7 µM]	-16
CN1C(=O)c2cc(NC(=O)c3cccs3)ccc2OC[C@@H]2O[C@@H](CC(=O)N3CCOCC3)CC[C@@H]21	3[16.7 µM]	-5
C[C@@H]1CN([C@@H](C)CO)S(=O)(=O)c2ccc(-c3ccccc3)cc2O[C@@H]1CN(C)S(C)(=O)=O	15[16.7 µM]	5
COc1cccc(S(=O)(=O)N(C)C[C@@H]2Oc3ncc(C#Cc4ccccc4)cc3C(=O)N([C@H](C)CO)C[C@@H]2C)c1	3[16.7 µM]	5
C[C@@H]1CN([C@H](C)CO)C(=O)c2cc(C#C[C@@H](C)O)cnc2O[C@@H]1CN(C)Cc1ccccn1	-1[16.7 µM]	-22
C[C@H](CO)N1C[C@H](C)[C@H](CN(C)Cc2ccc(Oc3ccccc3)cc2)Oc2ccc(NC(=O)CCC(F)(F)F)cc2CC1=O	-75[16.7 µM]	2
Cc1noc(C)c1NC(=O)Nc1ccc2c(c1)CC(=O)N([C@@H](C)CO)C[C@H](C)[C@@H](CN(C)CC1CC1)O2	0[16.7 µM]	2
C[C@H](CO)N1C[C@H](C)[C@H](CN(C)C(=O)Cc2ccccn2)Oc2ncc(-c3cncnc3)cc2C1=O	-13[16.7 µM]	6
C[C@@H]1CCCCO[C@H](CN(C)Cc2ccc3c(c2)OCO3)[C@H](C)CN([C@@H](C)CO)C(=O)c2cc(NS(=O)(=O)c3ccccc3)ccc2O1	-18[16.7 µM]	9

Reprinted from the part before: 2 entries, then new ones.
SMILES	HIV Env fusion	Yeast UUG start
C[C@H](CO)N1C[C@H](C)[C@H](CN(C)C(=O)Cc2ccccn2)Oc2ncc(-c3cncnc3)cc2C1=O	-13[16.7 µM]	6
C[C@@H]1CCCCO[C@H](CN(C)Cc2ccc3c(c2)OCO3)[C@H](C)CN([C@@H](C)CO)C(=O)c2cc(NS(=O)(=O)c3ccccc3)ccc2O1	-18[16.7 µM]	9
CCNC(=O)C[C@@H]1CC[C@@H]2[C@H](COc3ccc(NC(=O)Nc4ccc(F)cc4)cc3C(=O)N2C)O1	3[16.7 µM]	-6
CNC[C@H]1Oc2ncc(C#CCC(C)C)cc2C(=O)N([C@H](C)CO)C[C@H]1C	-11[16.7 µM]	27
C[C@H](CO)N1C[C@H](C)[C@@H](CN(C)Cc2ccccc2)Oc2ccc(NC(=O)CCCN(C)C)cc2C1=O	11[16.7 µM]	-16
C[C@H](CO)N1C[C@H](C)[C@H](CN(C)C(=O)Nc2cccc3ccccc23)Oc2ccc(NC(=O)NC3CCCCC3)cc2CC1=O	-1[16.7 µM]	-2
COc1ccccc1C#Cc1ccc([C@H]2[C@@H](C#N)N(C(=O)C3CCCCC3)[C@H]2CO)cc1	10[16.7 µM]	-11
C[C@@H]1CN([C@@H](C)CO)S(=O)(=O)c2ccc(C#CC3CC3)cc2O[C@H]1CN(C)C(=O)C1CCC1	20[16.7 µM]	0
CNC[C@@H]1Oc2ccc(NC(=O)C3CC3)cc2C(=O)N([C@@H](C)CO)C[C@@H]1C	-56[16.7 µM]	-14
COc1ccccc1S(=O)(=O)N[C@H]1C=C[C@H](CC(=O)NCc2cccc(F)c2)O[C@@H]1CO	-7[16.7 µM]	-6
C[C@H](CO)N1C[C@H](C)[C@H](CN(C)Cc2ccc(C(=O)O)cc2)Oc2ccc(NC(=O)Cn3cnnn3)cc2CC1=O	-20[16.7 µM]	-18
N#C[C@H]1[C@H](c2ccc(C3=CCCC3)cc2)[C@H](CO)N1C(=O)NC1CCCC1	u	10
CNC[C@@H]1Oc2c(NC(=O)c3ccc(-c4nccs4)cc3)cccc2C(=O)N([C@H](C)CO)C[C@@H]1C	39[16.7 µM]	12
COc1ccc([Si](C)(C)[C@@H]2[C@@H](CCn3cc([C@H](O)c4ccccc4)nn3)O[C@]3(C(=O)N(Cc4cccc(N5CCC5=O)c4)c4ccccc43)[C@H]2C)cc1	6[16.7 µM]	-6
C[C@@H]1CCCCO[C@H](CN(C)Cc2ccc3c(c2)OCO3)[C@@H](C)CN([C@H](C)CO)C(=O)c2cc(NC(=O)Nc3ccc4c(c3)OCO4)ccc2O1	19[16.7 µM]	-9
C[C@@H]1CCCCO[C@@H](CN(C)C(=O)c2ccncc2)[C@H](C)CN([C@@H](C)CO)C(=O)c2cc(N(C)C)ccc2O1	11[16.7 µM]	5
Cn1cnc(S(=O)(=O)N[C@@H]2CC[C@@H](CC(=O)NCC3CC3)O[C@H]2CO)c1	0[16.7 µM]	-6
Cc1noc(C)c1S(=O)(=O)Nc1ccc2c(c1)C(=O)N([C@H](C)CO)C[C@H](C)[C@H](CN(C)S(=O)(=O)c1c(C)noc1C)OCCCC[C@H](C)O2	-61[16.7 µM]	16
COc1ccc(NC(=O)N(C)C[C@@H]2Oc3ncc(C#C[C@H](C)O)cc3C(=O)N([C@@H](C)CO)C[C@H]2C)cc1	-22[16.7 µM]	26
C[C@@H]1CN([C@H](C)CO)C(=O)Cc2cc(NC(=O)Nc3ccc(F)cc3)ccc2O[C@@H]1CN(C)C(=O)NC1CCCCC1	13[16.7 µM]	-2
C[C@@H]1CN([C@@H](C)CO)C(=O)c2cc(NC(=O)NC3CCCCC3)ccc2O[C@@H](C)CCCCO[C@H]1CN(C)Cc1ccc(C(=O)O)cc1	25[16.7 µM]	4
